GALR2 agonist – activates the human galanin receptor 2; O43603; AID 803; hit rate 0.48% among 140,000; GALR2-expressing cells, agonist activation read-out; activation, %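 (tested at 5 µM)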;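 active = above mean plus 3 SD of all compounds, about 5% in these data, not always enough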;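 note: 0% = vehicle buffer wells and 100% = reference agonist at full effect; tested in CHO reporter cells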
Target sequence (O43603 whole entry, looked up): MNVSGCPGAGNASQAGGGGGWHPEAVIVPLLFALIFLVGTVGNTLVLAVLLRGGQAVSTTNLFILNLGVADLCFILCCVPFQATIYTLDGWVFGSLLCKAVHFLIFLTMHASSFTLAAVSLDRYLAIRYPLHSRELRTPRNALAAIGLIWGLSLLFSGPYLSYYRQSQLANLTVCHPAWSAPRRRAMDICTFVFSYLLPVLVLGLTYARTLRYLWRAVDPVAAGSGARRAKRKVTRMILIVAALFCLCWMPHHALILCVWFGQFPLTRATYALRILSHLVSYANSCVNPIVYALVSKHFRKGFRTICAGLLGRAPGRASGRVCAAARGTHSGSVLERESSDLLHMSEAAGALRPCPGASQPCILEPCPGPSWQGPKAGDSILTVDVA
Insulin prom inh – TRM-6 insulin promoter activity inhibition | inhibition, % at 2 µM | hit rate 0.9% among 130,000 | TRM-6 cells (human fetal islet line), insulin promoter-eGFP reporter, imaging; reporter expression induced with tamoxifen | AID 1273;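 active = inhibition above the mean plus 3 SD, with well images judged a real hit on visual review, cut at about 60% in these data, passing the limit was not always enough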
RGS16-Gao – modulates binding between human RGS16 and Galphao; O15492+P09471; hit rate 0.38% among 220,000; binding response (% of control), % at 10 µM; bead-based flow cytometry RGS16-Galphao binding, fluorescence; actives lie on both sides;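 active = below 25% or above 175%, edge rows of some plates excepted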;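 note: Galphao activated by GDP with aluminum fluoride before binding; 100% = wells without compound and 0% = beads without RGS; some results beyond the cut were filed as inactive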
Target sequence (O15492 whole entry, looked up): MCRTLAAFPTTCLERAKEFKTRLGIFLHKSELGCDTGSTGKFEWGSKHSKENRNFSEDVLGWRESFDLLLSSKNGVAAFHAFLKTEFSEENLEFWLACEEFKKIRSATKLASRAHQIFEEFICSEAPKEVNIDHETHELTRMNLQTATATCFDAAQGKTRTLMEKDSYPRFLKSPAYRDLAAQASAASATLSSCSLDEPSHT
Target sequence (P09471 whole entry, looked up): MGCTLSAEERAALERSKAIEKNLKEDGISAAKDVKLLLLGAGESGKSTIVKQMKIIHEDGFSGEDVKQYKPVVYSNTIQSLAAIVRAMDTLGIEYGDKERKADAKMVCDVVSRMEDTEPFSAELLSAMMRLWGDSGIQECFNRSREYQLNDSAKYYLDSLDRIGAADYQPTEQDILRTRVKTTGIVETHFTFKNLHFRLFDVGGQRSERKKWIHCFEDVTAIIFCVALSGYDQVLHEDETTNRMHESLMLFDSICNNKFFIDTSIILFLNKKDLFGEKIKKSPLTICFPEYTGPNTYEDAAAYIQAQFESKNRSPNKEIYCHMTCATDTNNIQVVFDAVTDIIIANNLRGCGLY
HSV augment – increases HSV replication in cells | HSV replication augmentation in cells, fold increase | maximum fold increase | hit rate 0.005% among 220,000 | AID 1956;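 active = peak rise of 1.5-fold or more in the series; tested in PC3 cells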;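 note: first round at 10 µM; read as green reporter fluorescence; hits show the peak of a series up to 25 µM; 1 = signal of infected wells without compound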
PKD1 kinase inh – inhibitors of human PKD1 kinase. hit rate 0.056% among 200,000. inhibition, %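 (about 10 µM by stock and volumes)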. Q15139. PKD1 kinase fluorescence polarization assay;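 active = inhibition of 50% or more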;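 note: controls were vehicle for no effect and a reference inhibitor for full effect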
Insulin prom inh cell count – second read-out of Insulin prom inh, no call of its own (marks repeat the call); normalized cell count, %; measured here: cell count, toxicity; reference of the scale not given here;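 cells exposed to compound for 48 h; stained nuclei by imaging scaled within each plate; lower means fewer cells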
HSV augment primary fold – second read-out of HSV augment, no call of its own (marks repeat the call); fold increase; compound at 10 µM; measured here: primary screen fold increase 10 uM; tested in PC3 cells;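 GFP signal in the first replicate; 1 = infected wells without compound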
Numbers without * were called inactive; i = inactive; . = no result given.

SMILES	GALR2 agonist	Insulin prom inh	Insulin prom inh cell count	RGS16-Gao	HSV augment	HSV augment primary fold	PKD1 kinase inh
CC(C)Sc1nc2c(c(=O)n(C)c(=O)n2C)n1C	-2.8	.	.	103	i	0.98	2
CCOc1ccc(Nc2nc(N3CCCC3)nc(N3CCN(c4ccc(OC)cc4)CC3)n2)cc1	.	0	139	98	i	0.85	-3
CC(C)C(c1nnnn1Cc1ccco1)N1CCN(c2nc3ccccc3s2)CC1 (centres undefined)	-1.9	.	.	96	i	1	-8
Cc1ccc2c(c1)c1ncn(CCC3=CCCCC3)c(=O)c1n2C	-0.7	64	68	106	i	0.75	3
COc1cc(OC)cc(C(=O)NCC(=O)OCC(=O)Nc2ncc(Cl)cc2Cl)c1	.	.	.	102	i	0.93	-3
CCc1nc2sc3c(Cl)ncnc3c2c2c1CCCC2	.	.	.	99	i	0.93	.
CC(C)NC(=O)NC(=O)CSc1ncccn1	.	.	.	103	i	1	-5
N#Cc1ccc(COC(=O)CSc2nnc(N)s2)cc1	0.2	.	.	103	i	1.1	13
Cc1nn(CCCC(=O)Nc2c(F)cc(F)cc2Br)c(C)c1[N+](=O)[O-]	.	-94	68	97	i	1.1	-8
CCSc1ccc(-c2ccco2)nn1	.	67	219	100	i	1	1
Cc1ccc(S(=O)(=O)NC2=NCCC2)cc1	-1.4	.	.	100	.	.	-13
CCc1c(C#N)c(SCc2c(C)noc2C)nc2c1C(=O)CC(C)(C)C2	-0.3	-50	60	111	i	0.89	-7
Cc1cc(N2CCOCC2)nc2ccc(NC(=S)N3CCN(c4ccccc4)CC3)cc12	.	55	110	37	i	0.8	2
Fc1ccccc1/C=N/NC(=S)Nc1ccc(Cl)cc1Cl	-0.2	-114	15	95	i	0.7	-10
CN(C)CCNc1nc(S(=O)(=O)c2ccccc2)c(Cl)s1	.	-52	93	104	i	1.1	2
Cc1ccc(-c2nnn(CC(=O)N(CC(=O)NC3CCCCC3)c3cnc4ccccc4c3)n2)o1	-1.1	5	119	.	i	1.3	-15
Cc1[nH]c(C)c2c(=O)n(Cc3ccc(Cl)cc3)ncc12	.	.	.	98	i	0.87	.
CC(C)[C@H](NC(N)=O)C(=O)NCCc1ccc(Cl)cc1Cl	.	6	96	78	i	0.92	-1
O=C(O)C1CC(O)CN1S(=O)(=O)c1cccs1 (centres undefined)	-1.1	19	65	103	.	.	-1
O=C(c1ccco1)c1cn(CC(=O)N2CCCCCC2)c2ccccc12	.	.	.	103	i	0.94	1
COc1ccccc1NC(=O)CN1CCN(CC(=O)Nc2ccc3c(c2)OCCO3)CC1	-1.0	17	165	100	i	0.91	-9
CC1(C)Cc2nc3sc4c(=O)n(CC(=O)NCc5ccco5)cnc4c3cc2CO1	-0.1	.	.	103	i	0.56	-5
CCN(c1cccc(C)c1)S(=O)(=O)c1ccc2[nH]c(=O)c(=O)[nH]c2c1	-3.4	40	77	107	i	1.1	-1
C/C(=N\NC(=O)c1cccc(N/N=C(\C)c2ccc([N+](=O)[O-])cc2)c1)c1ccc([N+](=O)[O-])cc1	.	.	.	94	i	0.9	.
Cc1ccc(S(=O)(=O)N(C)CC(=O)N2CCOCC2)cc1	-1.8	50	146	103	i	0.86	1
Additional structures follow:
SMILES	GALR2 agonist	Insulin prom inh	Insulin prom inh cell count	RGS16-Gao	HSV augment	HSV augment primary fold	PKD1 kinase inh
Nc1nnc(CC(=O)N/N=C/c2cccc([N+](=O)[O-])c2)s1	-1.6	.	.	102	.	.	-3
CCN(CCn1cccn1)Cc1nc(-c2ccc(OC)cc2)no1	.	.	.	101	i	1	-2
Cc1cc(C)nc(NCC(O)CNc2ccccc2C)n1 (centres undefined)	-0.9	-15	89	94	i	0.98	-6
Nc1nn(-c2ccccc2)c(N)c1N=Nc1cccc(F)c1	.	.	.	96	i	0.86	.
Cc1cc(C)c(S(=O)(=O)c2ccccc2)c(Cl)n1	-2.3	0	93	-18	i	1.3	-2
Cc1cc(-n2c(C)cc(C(=O)COc3ccc([N+](=O)[O-])cc3)c2C)no1	.	.	.	106	i	0.87	-2
Cc1ccccc1NC(=S)N1CCN(Cc2ccc3c(c2)OCO3)CC1	0.1	.	.	108	i	0.91	3
O=C(COC(=O)Cn1cnc2ccccc21)Nc1ccc2c(c1)OCCO2	-0.6	3	98	102	i	0.94	-7
CCn1c(CNC(=O)c2ccc(OC)c(OC)c2)nnc1SCC(=O)c1ccc(OC)cc1	-3.6	-433	45	99	i	1.1	-1
CCCC1CCC(=NNS(=O)(=O)c2ccc(C)c([N+](=O)[O-])c2)CC1 (centres undefined)	-0.9	-6	119	101	i	0.99	7
O=C(Cn1ccc([N+](=O)[O-])n1)N1CCCc2ccccc21	-3.1	12	100	104	i	0.98	-8
CCOC(=O)Cn1c(C)cc(COC)c(C#N)c1=O	.	.	.	98	i	1	17
CN1C(=O)C(CC(=O)NCC2CCCCC2)SC1=Nc1ccccc1 (centres undefined)	.	.	.	107	i	1.1	-6
Cc1sc(-n2c(C)ccc2C)c(C#N)c1C	-1.2	35	100	100	i	1.1	-8
CN(C)/C=N/c1ncc(-c2ncc(C(F)(F)F)cc2Cl)cn1	.	6	95	93	i	1.1	-8
Cc1ccccc1NC(=O)CSc1nnc(Cc2ccccc2)o1	-0.7	75*	166*	69	i	1	-13
C/C(CCc1oc2ccc(Cl)cc2c1-c1ccc(C)o1)=N\O	-0.9	.	.	101	i	0.93	3
COCCCNC(=O)c1ccc(Cn2c(=O)c3ccccc3n(Cc3ccccc3C)c2=O)cc1	0.4	57	75	96	i	1.1	1
COc1ccc(-c2oc3ncnc(N)c3c2-c2ccccc2)cc1	-0.4	21	148	111	i	0.85	2
O=C(CCCN1C(=O)c2ccccc2C1=O)Nc1ccccc1	.	.	.	112	i	0.77	.
Cc1ccc(S(=O)(=O)Nc2ccc(N=Nc3ccc(O)cc3)cc2)cc1	-2.2	30	90	85	i	0.92	-18
C=CCSc1nnc2c(n1)OC(c1cccnc1)N(C(C)=O)c1ccccc1-2 (centres undefined)	-0.7	.	.	103	i	0.96	-2
CC(=O)N1CCN(Cc2nc3cc(NC(=O)Nc4ccccc4)ccc3n2C)CC1	.	.	.	100	i	1.1	-3
O=C(CSc1ncn[nH]1)NCc1ccccc1	-2.1	-8	105	100	i	1	2
O=C(O)c1ccccc1-c1csc(-c2ccccc2)n1	.	-12	127	99	i	1.1	2

Quoted at random: five records from the list, in no set order.
SMILES	GALR2 agonist	Insulin prom inh	Insulin prom inh cell count	RGS16-Gao	HSV augment	HSV augment primary fold	PKD1 kinase inh
CCCC1CCC(=NNS(=O)(=O)c2ccc(C)c([N+](=O)[O-])c2)CC1 (centres undefined)	-0.9	-6	119	101	i	0.99	7
COc1ccc(-c2oc3ncnc(N)c3c2-c2ccccc2)cc1	-0.4	21	148	111	i	0.85	2
Cc1cc(C)c(S(=O)(=O)c2ccccc2)c(Cl)n1	-2.3	0	93	-18	i	1.3	-2
Nc1nnc(CC(=O)N/N=C/c2cccc([N+](=O)[O-])c2)s1	-1.6	.	.	102	.	.	-3
Cc1ccc(S(=O)(=O)Nc2ccc(N=Nc3ccc(O)cc3)cc2)cc1	-2.2	30	90	85	i	0.92	-18

Next part:
SMILES	GALR2 agonist	Insulin prom inh	Insulin prom inh cell count	RGS16-Gao	HSV augment	HSV augment primary fold	PKD1 kinase inh
CCOC(=O)CSC1=Nc2ccccc2C2=NC(CC(=O)NCc3ccc(OC)cc3)C(=O)N12 (centres undefined)	-0.1	40	80	96	i	0.92	-9
CCOC(=O)C(NC(=O)OC(C)C)(Nc1nccs1)C(F)(F)F (centres undefined)	-2.5	-62	69	102	i	0.78	-7
Cc1cccc(C(=O)NCCc2ccc(S(N)(=O)=O)cc2)c1[N+](=O)[O-]	-1.4	21	91	33	i	0.94	0
Cc1cccc(NC(=O)c2sc(-c3ccccc3)nc2-c2ccc([N+](=O)[O-])cc2)c1	-2.3	7	90	109	i	1	-4
CC(SC1=NCCS1)C(=O)Nc1nnc(-c2ccc(Cl)cc2)s1 (centres undefined)	-2.0	.	.	118	i	0.87	2
O=C(c1ccc(Cl)cc1)c1cnc2ccccn12	-3.9	48	49	102	i	0.83	2
CCc1nnc(NC(=O)CSc2nnc(CNC(=O)c3ccc(OC)c(OC)c3)o2)s1	.	26	121	100	i	1.1	-1
CCNC(=O)CN(C1CCCCC1)S(C)(=O)=O	-0.8	0	126	104	i	0.91	-10
O=C(C1CC1)N1CCN=C1SCc1ccc(Cl)cc1	0.1	.	.	100	.	.	5
Cc1ccccc1NC(=O)N(C(C)C)C(C)C	-1.2	46	86	89	i	0.96	-9
Cc1ccc(S(=O)(=O)N2CCC(C(=O)NCC3CCCO3)CC2)cc1 (centres undefined)	-1.5	-47	113	103	i	1.1	3
Cc1ccc(C)c(CSc2ncccc2C(=O)O)c1	-0.9	56	127	142	i	0.97	-11
Cc1ccc(C(C(=O)NC2CCCCC2)N2CCC3(CC2)OCCO3)cc1 (centres undefined)	-0.7	37	101	103	i	1.1	3
Cc1ccccc1OCC(=O)Nc1nnc(-c2ccco2)s1	.	.	.	99	i	1.1	.
NC(=O)COc1ccc(/C=N/NS(=O)(=O)c2ccccc2)cc1	.	-83	102	94	i	1	0
CC(=O)c1cc(CN2CCN(Cc3ccc(C)cc3)C(CCO)C2)cs1 (centres undefined)	.	.	.	92	i	0.99	1
COC(=O)c1cccc(NC(=O)CSc2nnc(C)n2C)c1	.	.	.	102	i	0.92	-9
O=C(c1ccccc1)c1ccccc1NC(=O)C1CCCN1Cc1ccccc1 (centres undefined)	.	.	.	101	i	1	.
COc1ccccc1NC(=S)N1CCN(C(=O)c2ccco2)CC1	-2.6	-9	41	105	i	1.1	-21
CCOC(=O)C1CCCN(C(=O)c2cncc(Br)c2)C1 (centres undefined)	-1.7	6	117	103	i	1	-9
COC(=O)CCn1[nH]c(=O)c2ccccc2c1=O	-0.9	8	84	107	i	0.95	-5
Cc1cccc(NC(=S)N(CCN2CCOCC2)Cc2cc3cc4c(cc3[nH]c2=O)OCCO4)c1	.	36	136	106	i	1.2	16
Cc1ccc(-c2onc3ccc(C4(C)OCCO4)cc23)cc1	-2.6	.	.	95	i	1	-7
COc1cccc(-n2nnc3c(=O)n(CC(=O)Nc4ccccc4C)cnc32)c1	.	16	82	104	i	0.98	-4
Brc1ccc(NCc2cccc3ccccc23)nc1	-0.1	3	32	108	i	0.83	3

Entries of single compounds from above. Values in the order: GALR2 agonist | Insulin prom inh | Insulin prom inh cell count | RGS16-Gao | HSV augment | HSV augment primary fold | PKD1 kinase inh
O=C(C1CC1)N1CCN=C1SCc1ccc(Cl)cc1 across the screens: 0.1 | . | . | 100 | . | . | 5
Cc1ccc(C)c(CSc2ncccc2C(=O)O)c1 across the screens: -0.9 | 56 | 127 | 142 | i | 0.97 | -11

The results go on.
SMILES	GALR2 agonist	Insulin prom inh	Insulin prom inh cell count	RGS16-Gao	HSV augment	HSV augment primary fold	PKD1 kinase inh
O=C(CSc1nc(-c2ccccc2)c(-c2ccccc2)[nH]1)NCc1ccco1	-2.7	-343	141	103	i	0.73	-2
CS(=O)(=O)N(Cc1ccccc1)c1ccc(C(=O)N2CCN(c3cccc(Cl)c3)CC2)cc1	-3.1	-27	110	103	i	1	7
CCOC(=O)c1coc(CNC(=O)c2c(C)oc3c2CCCC3)c1	-2.0	-14	104	104	i	0.95	0
CCN1C(C#N)=C(C#N)N=C(C)CC1(C)C	.	-25	146	101	i	0.91	4
COc1ccc(CCNC(=O)CNS(=O)(=O)c2ccc(Br)s2)cc1OC	-1.0	-36	108	84	i	0.77	8
C=C(C)C1Cc2cc3ccc(=O)oc3cc2O1 (centres undefined)	-1.2	30	64	104	i	0.96	-20
O=C(O)CCNc1nc(-c2ccccc2)nc2ccccc12	-1.7	7	82	103	i	0.97	-6
O=C(Cc1ccc(F)cc1)Nc1cccc(-c2cn3c(n2)SCC3)c1	.	.	.	99	i	0.89	1
O=c1[nH]c2sc3c(c2c(=O)n1Cc1ccccc1)CCC3	-0.2	-22	175	73	i	1	4
O=C(c1ccco1)N1CCN(CC(O)COc2ccc3oc4ccccc4c3c2)CC1 (centres undefined)	0.8	.	.	102	i	0.98	2
O=c1c2ccccc2nc(/C=C/c2ccc([N+](=O)[O-])cc2)n1CCCO	-0.8	-111	208	101	i	0.93	-6
C/C(=N\NC(=O)c1ccc(O)cc1)c1cc2ccccc2o1	.	.	.	100	i	0.79	-4
COCCNC(=O)c1ccccc1NS(=O)(=O)c1ccc(Br)s1	-2.0	-13	109	115	i	0.82	-11
O=C(c1cc2c(s1)CCC2)N1C(=O)c2ccccc2S1(=O)=O	-1.2	.	.	100	i	0.94	-3
Cc1ccccc1C(=O)NC(=S)Nc1ccc2[nH]c(=O)[nH]c2c1	.	.	.	97	i	0.85	-3
CCCCN(CC)S(=O)(=O)c1ccc2c(c1)n(C)c(=O)c(=O)n2C	.	.	.	107	i	1	.
COc1ccc(-c2cc(C(F)(F)F)nc(SCC(=O)Nc3ccc4c(c3)OCO4)n2)cc1OC	3.0	42	97	105	i	0.83	1
